Compound activity deposited in PubChem BioAssay by ICCB-Longwood Screening Facility, Harvard Medical School.
Sa growth inh – inhibitors of Staphylococcus aureus growth at 42 °C; S. aureus RN4220 growth, OD600, 20 h; active compounds read low; relative growth, % (no concentration beside the values); actives 0.53% (n = 170,000); AID 720641;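 active = growth at 42 °C up to 50% and 20 or more points under that at 30 °C, or under 10% at both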;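 note: 300 nL library stock went into each well; scaled to the means of positive and negative controls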
HCMV UL50-53 inh – disrupts HCMV UL50-UL53 complex binding. HTRF UL50-UL53 interaction, normalized percent inhibition. actives 0.15% (n = 190,000). inhibition, % (no concentration beside the values);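 active = both replicates at 50% or more, plus weaker picks with an unusually low signal ratio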;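 note: stock transfer was 100 nL into about 20 µL; 0% = negative control wells and 100% = wells with untagged competitor protein; inactives centre near -12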
GIV-Gai inh – blocks GIV peptide binding to rat Galpha-i3; Galpha-i3/FITC-GIV peptide fluorescence polarization, 90 min; active compounds read low; scaled: aluminum fluoride 0%, vehicle 100%; percent of control (FP), % (concentration not given with the values); actives 0.42% (n = 210,000);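 active = replicate mean at 85% of control or lower, very high polarization wells dropped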;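 note: wells of about 15 µL received 100 nL stock; the first replicate is given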
Target sequence (P08753 whole entry, looked up): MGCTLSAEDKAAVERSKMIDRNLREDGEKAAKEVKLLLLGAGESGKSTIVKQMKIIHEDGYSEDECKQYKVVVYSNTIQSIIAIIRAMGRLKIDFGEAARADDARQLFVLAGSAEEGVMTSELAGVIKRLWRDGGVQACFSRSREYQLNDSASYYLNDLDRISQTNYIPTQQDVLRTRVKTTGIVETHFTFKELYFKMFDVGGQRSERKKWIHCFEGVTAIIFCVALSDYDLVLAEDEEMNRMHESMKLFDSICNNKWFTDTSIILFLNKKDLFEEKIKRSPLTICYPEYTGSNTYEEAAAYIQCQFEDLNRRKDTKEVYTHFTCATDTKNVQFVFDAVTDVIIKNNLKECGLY
Sa growth inh second temp – also measured in Sa growth inh; calls as there; relative growth, %; measured here: growth at 30 °C;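 optical density after 20 h as mean of two plates; 100% = untreated growth and lower means inhibition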
* marks the source's active call; other numbers are inactive results; / = not tested or not shown.

The opening 2 entries, ahead of the listing:
molecule	Sa growth inh	Sa growth inh second temp	HCMV UL50-53 inh	GIV-Gai inh
CCC1CCCCN1C(=O)C1=CC(c2ccc(OC)cc2)=NS(=O)(=O)N1C (stereo unspecified)	102	92	/	99
CC1=C(C)/C(=N\S(=O)(=O)c2ccc(C)cc2)C=C(N2CCOCC2)C1=O	46	37	-19	/

All compounds of this part (from the top)
molecule	Sa growth inh	Sa growth inh second temp	HCMV UL50-53 inh	GIV-Gai inh
CCC1CCCCN1C(=O)C1=CC(c2ccc(OC)cc2)=NS(=O)(=O)N1C (stereo unspecified)	102	92	/	99
CC1=C(C)/C(=N\S(=O)(=O)c2ccc(C)cc2)C=C(N2CCOCC2)C1=O	46	37	-19	/
CCCCc1nc(SCC(=O)Nc2ccc(S(N)(=O)=O)cc2)n[nH]1	107	88	/	101
O=C1OC(C(=O)Nc2ccc(Cl)c(C(F)(F)F)c2)Cc2ccccc21 (stereo unspecified)	98	91	4	105
O=C(Nc1nnc(N2CCCCC2)s1)NC12CC3CC(CC(C3)C1)C2	93	88	/	95
CC(C(N)=O)N(c1ccc(Cl)cc1)S(C)(=O)=O (stereo unspecified)	97	83	8	105
COc1ccc(S(=O)(=O)NC(C)(C)C)cc1-c1nnc2c3ccccc3c(C)nn12	121	86	/	98
CCOC(=O)c1c(S(=O)(=O)N2CCCc3ccccc32)c(C)n(C)c1C	96	96	-5	106
Cc1ccc(C(=O)n2c(O)c(C3=NCCCCC3)c3ccccc32)cc1	86	98	18	/
COC(=O)c1ccccc1NC(=O)Cn1c(=O)nc(-c2ccccc2)c2cc(Cl)ccc21	101	88	/	101
CCCCNC(=O)c1cnn2c(C(F)F)cc(-c3ccccc3)nc12	89	79	-46	100
N#CC1(c2ccccc2)CCC(=O)CC1	93	105	8	/
COc1ccc(OC)c(NC(=O)C2CCCN(S(=O)(=O)c3ccc4c(c3)CCCC(=O)N4)C2)c1 (stereo unspecified)	98	81	/	111
O=C(Cn1c2ncccc2c(=O)n1-c1ccccc1)Nc1ccc2c(c1)OCO2	/	/	1	104
COC(=O)c1sc(C(F)(F)F)c(-c2ccccc2)c1S(=O)(=O)N1CCOCC1	84	85	-27	100
C=CCN1CCN(C(=O)c2csc3ccccc23)CC1	119	100	-41	101
CC(C)C(NS(=O)(=O)c1cccc(C(F)(F)F)c1)C(=O)O (stereo unspecified)	108	91	-12	/
CC(=O)N1[C@@H](C2C(=O)NN=C2C)C[C@H](C)N1c1ccccc1 (stereo partly specified)	111	82	-7	/
CC(C)NC(=O)c1ccccc1NC(=O)c1ccco1	73	96	2	97
Cc1oc2ncnc(OCC(=O)N3CCN(c4cccc(Cl)c4)CC3)c2c1C	/	/	-11	96
COc1ccc(C(=O)Nc2ccc3c(c2)nc(CCc2ccccc2)n3C)c(OC)c1	/	/	-10	105
Cc1cc(C(=O)CN(Cc2ccco2)S(=O)(=O)c2ccccc2)c(C)n1C	82	90	-24	/
CC(C)NS(=O)(=O)c1ccc(NC(=O)C(C)OC(=O)c2ccc(CO)cc2)cc1 (stereo unspecified)	95	85	-17	/
COc1ccc(S(=O)(=O)c2c(Nc3ccc(F)cc3)sc(C(=O)c3ccc(C)cc3C)c2N)cc1	128	112	/	106
Cc1cccc(CN2CCC(C(=O)N3CCC(C)CC3)CC2)c1	103	80	14	95
COc1ccc(-c2cc(-c3ccco3)nn2-c2nc(-c3ccc(Cl)cc3)cs2)cc1	104	96	-2	/
CCOC(=O)c1cnc2ccccc2c1NCCc1ccccc1	87	58	/	101
NC(=O)CSc1ncnc2sc3c(c12)CCC3	90	88	-23	/
c1ccc(C2NCCN=C2NC2CCCCC2)cc1 (stereo unspecified)	/	/	-4	92
COC(=O)CNC(=O)c1ccn[nH]1	88	94	-18	/
CCCCN=C1SC(CC(=O)Nc2ccccc2C)C(=O)N1CCCC (stereo unspecified)	97	88	-29	/
C=CCc1cccc(/C=N/n2c(-c3ccccc3C)n[nH]c2=S)c1O	130	99	8	104
CC1CCCC(C)N1C(=O)c1ccccc1N (stereo unspecified)	115	75	-11	105
COc1ccc(Cl)cc1NC(=O)c1cc(S(=O)(=O)N(C)Cc2ccccc2)ccc1F	85	97	/	101
COc1cc(C(=O)OCc2cc3ccccc3nc2Cl)cc2c1OCCO2	79	95	-11	/
O=C(CCn1c(=O)oc2ccccc21)NCc1ccco1	117	96	/	108
Cc1cccc(OCC(O)Cn2c(=N)n(CCN3CCCCC3)c3ccccc32)c1 (stereo unspecified)	110	90	-13	107
COC(=O)c1cc(=O)c2cc(F)ccc2[nH]1	/	/	-28	101
c1ccc(-c2nc3ccccc3nc2N2CCCCC2)cc1	73	59	-14	103
Cc1cccc(C(=O)Nc2nnc(S(=O)(=O)N3CCOCC3)s2)c1	118	56	2	103
Cc1ccc(C)c(N2CCN(C(=O)c3cc(C)nc4c3c(C)nn4-c3ccccc3)CC2)c1	110	95	/	103
CCc1ccc(NC(=O)CC2C(=O)N(c3cccc(OC)c3)C(=O)N2Cc2ccc(F)cc2)cc1 (stereo unspecified)	107	78	/	102
CCc1ccc(NC(=NCc2ccncc2)NC(=O)c2ccc(NC(C)=O)cc2)cc1	/	/	-18	100
CCOC(=O)c1sc2nc3c(cc2c1NC(=O)c1ccccc1)COC(C)(C)C3	89	88	-20	106
O=C(/C=C/c1ccc(-c2ccc(F)cc2)o1)N1CCCC1	120	101	-10	/
CC(C)N1CCC(NC(=O)NC2CCCCC2)CC1	116	99	-40	103
Cc1nccn1C(=O)c1cc2ccccc2oc1=O	97	83	-68	99
Cc1c(Cl)cccc1-n1ccn(CC#N)c(=O)c1=O	106	97	-1	104
Fc1ccc(-c2noc3ncnc(NCc4cccc(Cl)c4)c23)cc1	79	92	/	98
COC(=O)c1sccc1NC(=O)c1ccc(F)cc1	100	95	-17	99
Cc1ccc(OCC(=O)N(Cc2ccco2)Cc2ccco2)cc1	99	81	-34	99
CC(=O)Nc1ccc2nc(SCc3ccccc3C#N)sc2c1	99	79	-4	104
CC(Oc1ccccc1)C(=O)N=Nc1c(O)[nH]c2ccc(Br)cc12 (stereo unspecified)	98	93	-8	106
CCN(CC)C(=O)Cn1c(=O)n(-c2ccccc2)c(=O)c2c3c(sc21)CCC3	105	87	-9	99
COc1ccc(-c2cc(C(F)(F)F)nc(NCCc3ccccc3)n2)cc1	107	97	6	105
COc1ccccc1N1CCN(C(=O)c2cc3c(-c4ccccc4F)nn(C)c3s2)CC1	103	85	-17	103
Cc1ccc2c(c1Br)C(O)(CC(=O)c1ccc(F)cc1)C(=O)N2 (stereo unspecified)	104	92	/	106
COc1ccc(NC(=O)CN(C)CC(=O)Nc2ccc(N3CCOCC3)cc2)cc1	87	95	-4	/
CCOc1ccccc1NC(=O)Cn1c(=O)n(CC(=O)NCc2ccccc2Cl)c(=O)c2sccc21	100	105	-32	109
Cn1cccc1/C=C1\CC(c2ccccc2)C/C(=C\c2cccn2C)C1=O (stereo unspecified)	89	75	-22	203

The listing continues.
molecule	Sa growth inh	Sa growth inh second temp	HCMV UL50-53 inh	GIV-Gai inh
Cc1cccc(/C=N/n2c(C)cc(C)c(C#N)c2=O)c1	98	93	-15	105
Cc1c(C(=O)N2CCCC2)c(S(=O)(=O)Nc2ccccc2)c(C)n1C	92	79	-28	98
Cc1c(-c2nc(-c3ccccc3)no2)nnn1-c1cccc(Cl)c1	/	/	-24	105
CCOc1ccc(NC(=O)c2sc3nc4c(c(-c5ccc(OC)cc5)c3c2N)C(=O)CC(C)(C)C4)cc1	83	91	-48	102
CCCCN(CCCC)C1=C(C(=O)c2ccccc2)N(C)S(=O)(=O)c2ccccc21	67	62	-25	100
S=C1NCN(CCc2ccccc2)CN1	124	90	/	104
CCCc1nc2ccccc2n1CC(O)COc1ccccc1 (stereo unspecified)	91	88	-25	99
CCn1cc(S(=O)(=O)NCc2cccs2)cn1	101	100	5	106
Cc1ccc(O)c(C(=O)c2cnn3c(N)nnc3c2)c1	57	38	51*	/
NC(=O)c1c(NC(=O)CN2C(=O)/C(=C/c3ccc(Cl)cc3Cl)SC2=S)sc2c1CCCC2	/	/	-16	101
Cc1ccc(C)c(S(=O)(=O)N2CCc3cc4ccccc4nc32)c1	/	/	-17	103
COCCCNc1cc(C)nc2ccccc12	116	80	-3	97
Cn1c(CN2CCOCC2)nnc1SCc1ccc(Cl)cc1	83	87	/	96
COc1cccc(-c2csc(-c3nnn(-c4ccccc4)c3N)n2)c1	/	/	1	115
CCOC(=O)Cn1c(=O)c2c(nc3n2CCS3)n(C)c1=O	/	/	-6	116

Two of the compounds above, field by field:
Cc1ccc(O)c(C(=O)c2cnn3c(N)nnc3c2)c1
  Sa growth inh: 57	Sa growth inh second temp: 38	HCMV UL50-53 inh: 51*	GIV-Gai inh: /

CCCCN(CCCC)C1=C(C(=O)c2ccccc2)N(C)S(=O)(=O)c2ccccc21
  Sa growth inh: 67	Sa growth inh second temp: 62	HCMV UL50-53 inh: -25	GIV-Gai inh: 100

Continued:
molecule	Sa growth inh	Sa growth inh second temp	HCMV UL50-53 inh	GIV-Gai inh
O=C(COc1ccc2c(c1)CCC2)N(Cc1cccnc1)c1ccc2c(c1)OCO2	94	73	-3	/
CN(C(=O)COc1ncnc2sccc12)C1CCCCC1	92	94	2	/
CN1CCCN(CC2CC=CCC2)CC1 (stereo unspecified)	99	102	-8	104
CC(=O)c1cc2c(cc1N/C(=N/S(=O)(=O)c1ccc(C)cc1)c1ccccc1)OCO2	94	93	/	97
COc1cc([N+](=O)[O-])ccc1NC(=O)N1CCC2(CC1)Nc1cc(F)ccc1-n1cccc12	97	93	/	100
CCOc1ccc(NC(=O)CSc2cn(CC(=O)N3CCCCCC3)c3ccccc23)cc1	126	95	/	102
CN1C(=O)c2ccccc2Sc2ccc(NC(=O)NC3CC3)cc21	93	75	-9	107
CN(CC(=O)Nc1ccc(F)cc1)C(=O)CSc1ccc2c(c1)OCCO2	98	94	11	/
CC(C(=O)Nc1cccc(Cl)c1)N1CCNC(=O)C1 (stereo unspecified)	100	87	-7	/
CC(C(=O)Nc1ccccn1)c1ccccc1 (stereo unspecified)	100	87	-18	/
COc1ccc(-c2cc3ncc(C(=O)c4cc(Br)ccc4O)cn3n2)cc1	/	/	-26	95
COC(=O)C1=C(O)/C(=C/c2ccc(O)cc2)SC1=Nc1ccccc1	109	76	/	136
COc1ccc(CNC(=O)c2c(-n3cccc3)sc(C)c2C)cc1	87	96	-5	/
Cc1ccc(C(=O)Nc2ccccc2C#N)cc1	105	92	-5	/
CSc1cnn(-c2ccccc2)c(=O)c1SC	106	83	-61	104
Cc1ccc(CCC(=O)NC2CCc3ccccc3C2)o1 (stereo unspecified)	114	93	-16	103
S=C(NC1CCCC1)N1CCN(c2ccccc2)CC1	91	72	-10	95
Cc1cc(C)nc(C(=O)N/N=C/c2cc(C)n(C3CCCC3)c2C)n1	149	72	14	/
Cc1cc(C)cc(NC(=O)C2CC(=O)NC(=NCc3ccccc3)N2)c1 (stereo unspecified)	100	101	-4	103
CCN(CC)C(=O)c1sc2c(c1C)c(=O)n(-c1ccc(Cl)c(Cl)c1)c(=O)n2Cc1ccccc1C#N	86	90	/	102
O=C(Oc1cccc2ccccc12)c1ccccc1	128	76	/	96
CC(=O)NCCn1c(SCC(=O)c2ccccc2)nc2ccccc2c1=O	93	76	0	99
Cc1cc(C)cc(Oc2coc3c(CN4CCN(C)CC4)c(O)ccc3c2=O)c1	93	90	-28	106
CN(C)C=Nc1ccccc1I	54	66	-12	/
COc1ccc(N(CC(=O)N2CCN(c3ccccc3OC)CC2)S(C)(=O)=O)cc1OC	/	/	-13	97

Record cards, from the list above. Order of values: Sa growth inh | Sa growth inh second temp | HCMV UL50-53 inh | GIV-Gai inh
COc1ccc(N(CC(=O)N2CCN(c3ccccc3OC)CC2)S(C)(=O)=O)cc1OC in the list: / | / | -13 | 97
Cc1ccc(CCC(=O)NC2CCc3ccccc3C2)o1 (stereo unspecified) in the list: 114 | 93 | -16 | 103
CN(C)C=Nc1ccccc1I in the list: 54 | 66 | -12 | /
